# CDC25B-CDK2 inh: primary biochemical HTRF screen for blockers of M-phase inducer phosphatase 2 binding to CDK2/cyclin A; z-score (concentration not given with the values); 94,000 compounds, 0.72% hits; HTRF CDC25B-CDK2/CyclinA binding, anti-His/anti-Flag; stronger effect = higher value;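 further: score is relative to mean and SD of negative controls; strong numbers were not always called active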
# TAR Tat displ: TAR RNA-Tat peptide displacers, HIV-1, primary screen, biochemical, FRET, FAM/TAMRA-labeled Tat. HIV-1 TAR RNA, Tat peptide displacement FRET; stronger effect = higher value. 100,000 compounds, 0.6% hits. z-score (no concentration beside the values);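 further: score is relative to mean and SD of negative controls; some compounds called inactive have numbers as strong as hits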
# * = called active by the depositor; x = no result given.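 How the source made its calls: active means z-score from 3 up in half or more of its runs; inactive means the rest.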
SMILES,CDC25B-CDK2 inh,TAR Tat displ
O=C1CN2C(=Nc3ccc(Cl)cc3C2c2ccccc2)CN1 (configuration not stated),-0.69,x
CC1(C)Cc2c(sc3c2c(=O)n(Cc2ccccc2)c2nncn32)CO1,-1.42,-0.15
Cc1nn(CC(=O)NCCC2=CCCCC2)c(=O)c2c1sc1ccccc12,-2.68,2.28
Cn1cc(S(=O)(=O)c2ccc(Cl)cc2)c(=O)c2cc(F)c(N3CCOCC3)cc21,x,1.12
CC1(C)Cc2nc(Cl)c(C(=O)O)cc2CO1,2.13,x
CC(=O)NC1=NN(C(C)=O)C(c2ccc(OCc3ccc(C)cc3)c(Br)c2)S1 (configuration not stated),0.11,0.66
Cc1cc2c(n1-c1ccc(C(=O)O)cc1)CCCC2,-0.92,1.28
CSc1nnc2c(n1)OC(c1ccccc1)Nc1ccc(Br)cc1-2 (configuration not stated),-3.49,0.96
CC(=O)Nc1ccccc1SCc1cc(=O)n2c3c(sc2n1)CCCC3,x,0.5
CC(=O)N1CCC2(CC1)OC(=O)C(C)=C2C(=O)N1CCOCC1,x,0.79
CN(Cc1ccc(Cl)cc1)Cc1cc(=O)c2cccc(F)c2[nH]1,x,0.22
O=C(NCCN1CCc2ccccc2C1)Nc1ccccc1F,-0.6,-0.3
ON=C(c1cccs1)c1cccs1,-0.69,x
O=C(CSc1nnc2ccc3ccccc3n12)Nc1ccc(F)cc1,-1.42,x
Cc1nccc(-c2cccc([N+](=O)[O-])c2)n1,0.4,x
CC(=O)N(CC1OC(c2ccc3c(c2)OCO3)=NN1C(C)=O)c1ccc(Cl)cc1C (configuration not stated),x,0.78
CCCN(CCC)c1nn2c(=O)c(C(=O)N3CCN(c4ccccn4)CC3)cnc2s1,x,1.07
OCc1nc2ccc(Oc3ccc4nc(CO)[nH]c4c3)cc2[nH]1,-1.95,x
Cc1ccc(S(=O)(=O)NC(c2nnc(-c3ccccc3)o2)c2ccccc2F)cc1 (configuration not stated),x,1.43
CCCn1cc(S(=O)(=O)c2ccc(OC)cc2)c(=O)c2cc(F)c(N3CCCC3)cc21,x,0.27
Fc1ccccc1CNCc1cccn1-c1nnc(N2CCOCC2)s1,x,-0.05
COc1ccc(Cc2nn3c(C(F)(F)F)nnc3s2)cc1,0.24,0.84
O=C(CN1C(=O)c2cccnc2Sc2ccccc21)NCCCN1CCC(N2CCCCC2)CC1,x,0.44
Cc1[nH]c2ccccc2c1C(=O)C(=O)NC(C)(C)C,0.16,x
CC1CCCC(C)N1NC(=O)c1ccc(Cl)c(S(N)(=O)=O)c1 (configuration not stated),x,-0.07
# (further entries)
SMILES,CDC25B-CDK2 inh,TAR Tat displ
CCSc1nc2cn(CC)nc2c(=O)n1Cc1ccc(C)cc1,x,2.13
O=C(NCc1cccs1)C1(c2cccs2)CCOCC1,x,2.02
O=C(NC1CC1)c1nnc(CS(=O)(=O)c2ccccc2)o1,x,-1.37
Cc1noc(NS(=O)(=O)c2ccc(NC(=O)CCC3CCCCC3)cc2)c1C,0.42,x
C=CCOC(=O)C1=C(C)NC2=C(C(=O)CCC2)C1c1cccc(Cl)c1 (configuration not stated),-0.58,1.62
O=C(Cn1cnc2c(nnn2Cc2ccc(Cl)cc2)c1=O)N1CCc2ccccc21,-1.75,1.66
Cc1onc(C(=O)NCc2cccs2)c1[N+](=O)[O-],-0.86,0.34
CC1CC(C)CN(S(=O)(=O)c2ccc3c(c2)oc(=O)n3CC(=O)N2CCOCC2)C1 (configuration not stated),-0.61,0.5
CCOC(=O)c1nc2c(c(C)c(C)n2-c2ccccc2)c(=O)[nH]1,1.23,1.11
COCCCNc1ccc([N+](=O)[O-])c(NCCCOC)c1C#N,-1.59,x
Cc1ccccc1-c1nc2c3c(C)c(C)n(CCN(C)C)c3ncn2n1,-1.99,2.4
O=c1onc(-c2ccccc2C(F)(F)F)n1-c1cccnc1,-1.36,x
O=C(CN1C(=O)COc2ccc(S(=O)(=O)N3CCCCC3)cc21)NC1CCCCC1,x,-1.27
CCc1nn2cc(-c3ccc(Cl)cc3)nc2s1,-1.09,-0.68
COc1ccc2c(c1)-c1cc(Cl)ccc1S(=O)(=O)N2C(C)=O,-1.18,x
CCOC(=O)N1CCN(C(=O)c2noc(C)c2[N+](=O)[O-])CC1,-0.35,0.38
CCCN(CCC)CCNC(=O)c1cc2c(s1)-c1ccccc1S(=O)(=O)C2,-1.29,0.22
Cc1cc2c(cc1S(=O)(=O)N1CCN(c3ccccn3)CC1)OCCN2C,x,1.61
Cc1nn(-c2nc3ccccc3[nH]2)c2c1C(c1cc(Cl)ccc1F)CC(=O)N2 (configuration not stated),x,1.9
CC1CCC(NC(=O)CN(C)S(=O)(=O)c2ccc3[nH]c(=O)ccc3c2)CC1 (configuration not stated),x,-2.31
COc1cc2c(cc1OC)C(c1ccc(C)cc1)C1=C(CC(C)(C)CC1=O)N2 (configuration not stated),-1.82,1.57
O=C(c1ccco1)c1cn(CCOc2ccccc2)c2ccccc12,-0.45,-0.15
CC1CCCCC1NC(=O)CCS(=O)(=O)c1cc2c(cc1Cl)NC(=O)CO2 (configuration not stated),x,2.76
Cc1cccc(NS(=O)(=O)c2cc(-c3ccc(=O)[nH]n3)cc(C)c2C)c1C,x,2.05
COC(=O)c1ccc(C(=O)OC)c(NC(=O)c2ccc(C)c([N+](=O)[O-])c2)c1,-2.7,x
# Following part
SMILES,CDC25B-CDK2 inh,TAR Tat displ
CCOCCCNc1nc(-c2ccccc2)nc2ccccc12,0.13,0.72
CCCN(CCC)c1ncnc2c1cnn2-c1cccc(C)c1,-2.01,x
CCC(=O)Nc1ccc2nc(SCC(N)=O)sc2c1,-1.72,-0.15
COc1ccc(OC)c(NC(=O)N2CCn3c(C)ccc3C2C(C)C)c1 (configuration not stated),x,-0.71
Cc1cc(C2=Nc3ccccc3SC2)ccc1Cl,-2.19,x
O=C(NCCCN1CCc2ccccc2C1)C1CCCN1c1nnc(N2CCCC2=O)s1 (configuration not stated),x,1.03
Cc1cc2c(cc3c(=O)n(CC(=O)N4CCc5ccccc54)ncn32)s1,-0.45,x
COc1cccc(Nc2c3c(nc4ncnn24)CCCC3)c1,x,0.19
CCCC1N=C2c3ccccc3N=C(SCC(=O)Nc3ccccc3)N2C1=O (configuration not stated),x,0.49
Cc1cc(C)nc(SCC(=O)NC2=NN=C(c3ccc(Br)cc3)CS2)n1,-9.44,0.85
Cc1ccc(CN2C(=O)C(O)(CC(=O)c3ccccn3)c3ccccc32)cc1 (configuration not stated),-1.19,x
CCN(CC)C(=O)CSc1nc2cc3c(cc2c(=O)n1Cc1ccco1)OCO3,1.09,x
Clc1ccc(CO/N=C/c2nc3ccccc3s2)cc1,-1.96,x
CC(C)(C)c1ccc(S(=O)(=O)Nc2ccc(O)c(Cl)c2)cc1,-0.15,-0.92
CCOC(=O)/C(N=Nc1ccccc1Cl)=C(/O)CSc1nc(C)cc(C)c1C#N,-1.18,x
O=C1c2cccnc2C(Nc2ccccc2)N1Cc1cccs1 (configuration not stated),0.64,1.2
Cc1cccc(C2C3(C#N)C(N)=NC4(OCCO4)C23C#N)c1 (configuration not stated),-0.14,x
CC(=O)Nc1nc2ccc(S(=O)(=O)NCC(C)C)cc2s1,x,1.14
Cc1noc(C)c1C(=O)N1CCN(C(=O)c2ccco2)CC1,-1.93,x
O=C(CCc1nc(CSc2nc3ccccc3o2)no1)Nc1ccccc1F,x,1.32
COC(=O)c1sccc1NC(=O)Cn1ncc2c1-c1ccccc1OC2,-1.39,-0.38
CC1CCc2sc3ncnc(NCCCN4CCOCC4)c3c2C1 (configuration not stated),1.22,-0.29
Brc1ccc2ncnc(NCCc3ccccc3)c2c1,-1.27,0.57
Cc1c(C(=O)NC2CCCCC2)sc2ncnc(N3CCN(C)CC3)c12,x,0.24
O=C(Cn1cnc(S(=O)(=O)N2CCc3ccccc32)c1)NC1CCCCC1,x,0.99

# Ordered by count of non-hydrogen atoms (highest first): some entries from above
SMILES,CDC25B-CDK2 inh,TAR Tat displ
O=C(NCCCN1CCc2ccccc2C1)C1CCCN1c1nnc(N2CCCC2=O)s1 (configuration not stated),x,1.03
CCOC(=O)/C(N=Nc1ccccc1Cl)=C(/O)CSc1nc(C)cc(C)c1C#N,-1.18,x
CCCC1N=C2c3ccccc3N=C(SCC(=O)Nc3ccccc3)N2C1=O (configuration not stated),x,0.49
O=C(Cn1cnc(S(=O)(=O)N2CCc3ccccc32)c1)NC1CCCCC1,x,0.99
Cc1cc(C)nc(SCC(=O)NC2=NN=C(c3ccc(Br)cc3)CS2)n1,-9.44,0.85
CC1CCc2sc3ncnc(NCCCN4CCOCC4)c3c2C1 (configuration not stated),1.22,-0.29
CCOCCCNc1nc(-c2ccccc2)nc2ccccc12,0.13,0.72
Cc1cccc(C2C3(C#N)C(N)=NC4(OCCO4)C23C#N)c1 (configuration not stated),-0.14,x
CC(=O)Nc1nc2ccc(S(=O)(=O)NCC(C)C)cc2s1,x,1.14
Brc1ccc2ncnc(NCCc3ccccc3)c2c1,-1.27,0.57
CCC(=O)Nc1ccc2nc(SCC(N)=O)sc2c1,-1.72,-0.15
Cc1cc(C2=Nc3ccccc3SC2)ccc1Cl,-2.19,x

# Later entries
SMILES,CDC25B-CDK2 inh,TAR Tat displ
COc1ccc(N2C(=O)CCC2(C)C(=O)NC2CCCC2)c(OC)c1 (configuration not stated),-1.97,1.12
O=C(CCc1ccccc1)Nc1nnc(SCc2nnc(-c3ccccc3)o2)s1,x,2.91
CSc1cccc(NC(=O)CN2CCN(CC(=O)Nc3cccc(SC)c3)CC2)c1,-0.43,x
CN(C)CCNC(=O)C1(O)c2cc(Br)ccc2NC(=O)N1c1ccc(Cl)cc1 (configuration not stated),0.56,x
CCC(=O)Nc1cc2[nH]c(=O)[nH]c2cc1C,x,-0.37
Cc1ccc(C)c(N(C)C(=O)Cn2ncc3c([nH]c4ccc(C)cc43)c2=O)c1,x,0.72
Brc1ccc2c(c1)OCCOCCOCCOCCO2,-1.16,x
Cc1ccc2[nH]c3c(N4CCCCC4)ncnc3c2c1,-3.66,0.7
Cn1c(/C=C/c2ccc(N)cc2)nc2ccccc21,-7.52,2.22
CCOc1ccc(-c2nnc3ccc(SC(CC)C(=O)O)nn23)cc1 (configuration not stated),-2.05,x
Cn1c(=O)c2sccc2n2c(CCCC(=O)Nc3ccc(F)c(Cl)c3)nnc12,x,-0.74
O=c1[nH]c(-c2ccccc2)nc2c1Cc1cc(F)ccc1O2,-1.71,0.27
CCOc1cc(-c2cc(C(=O)O)c3c(-c4ccc(OC)cc4)[nH]nc3n2)ccc1O,-1.5,0.96
COCCn1nnc2c(sc3nc(C)ccc32)c1=O,-1.33,0.63
CC(=O)c1c(C)[nH]c(C(=O)N2CCN(c3ncccn3)CC2)c1C,-2.05,x
O=C(CSc1nc2ncccc2o1)Nc1ccc(S(=O)(=O)NC2CCCCC2)cc1,x,0.94
O=C(Cn1c(=O)oc2cc(S(=O)(=O)N3CCCC3)ccc21)Nc1ccc(F)cc1F,-1.34,2.2
Cc1ccc(SCC(=O)OCc2cc(=O)n3nc(-c4cccs4)sc3n2)cc1,x,0.74
COc1ccc(Nc2ccc3cc(S(=O)(=O)N4CCCC4)ccc3n2)cc1Cl,x,1.08
COc1ccc(C2CC(=O)C3=C(C2)NC(C)=C(C(=O)OC(C)C)C3c2cccc(C)c2)cc1OC (configuration not stated),-1.61,-0.73
COCCNc1nc(Nc2ccc(OC)c(Cl)c2)c2cnn(C)c2n1,x,1.24
O=c1c2c3c(sc2ncn1-c1ccccc1)CCCC3,-1.21,2.39
CCc1nc2n(n1)C1(CCCCC1)[C@@H]1CCCC[C@@H]1N2C(=O)C(C)C,1.47,0.78
O=C(c1ccco1)N1CCN(C(=O)c2cnn(-c3cccc(F)c3)c2C2CCNCC2)CC1,x,1.2
CCOC(=O)c1cccc(-n2sc(=O)n(C3Cc4ccccc4C3)c2=O)c1,-2.26,x
# Next part
SMILES,CDC25B-CDK2 inh,TAR Tat displ
OC[C@H]1O[C@@H](Oc2ccc(O)cc2)[C@H](O)[C@@H](O)[C@@H]1O,x,1.81
CC1(C)OC(=O)C(=Cc2c[nH]c3ccccc23)C(=O)O1,-1.7,x
Cc1ccc(CNC(=O)C2=Cc3sc(C)c(C)c3CS2)cc1,x,0.81
Cc1ccc2c(=O)cc(C(=O)Nc3sc4c(c3C(N)=O)CCCC4)oc2c1,-1.7,1.09
CN=C(Nc1ccc(C)cc1C)SC,-2.53,x
COc1ccc(CNc2ncnc3c2c(-c2ccccc2)cn3-c2ccccc2)cc1,-3.04,x
N#CCCOCc1cccc2ccccc12,1.06,x
NC(=O)CSc1nc(-c2ccccc2)nc2c1Cc1ccccc1O2,-1.12,-0.65
COc1ccc(CC(=O)Nc2ccc(-c3noc(COc4ccccc4C)n3)cc2)cc1,-0.57,x
COc1cccc(-c2nn3c(C4COc5ccccc5O4)nnc3s2)c1 (configuration not stated),-2.21,2.55
O=C(NCCNc1ccc(C(F)(F)F)cc1[N+](=O)[O-])c1cccnc1Oc1ccccc1,-0.66,x
Cc1ccc(-c2noc3ncnc(NCCCN4CCCC4=O)c23)cc1,x,1.36
Cc1nc(N2CCCCC2)cc(N2CCN(S(=O)(=O)c3cc(C)c(C)cc3C)CC2)n1,-1.4,1.32
Cc1cc2c(cc3c(SCC(=O)Nc4ccccc4F)nncn32)o1,x,0.66
COc1ccc(CN2C(=O)c3ccncc3C2=O)cc1,x,1.88
COc1ccc(C2CC(c3ccc(Br)cc3)Nc3nnnn32)c(OC)c1 (configuration not stated),x,3.85
CN(C1CCCCC1)S(=O)(=O)c1ccc(-c2ccc(=O)[nH]n2)o1,x,1.61
COc1ccc(S(=O)(=O)NCc2ccc3c(c2)OCO3)cc1,-0.31,0.29
CC(=O)Nc1ccc(OCc2cc(=O)n3ccc(C)cc3n2)cc1,x,0.58

# Screening data (PubChem)

# Random draw from the library (roughly 0.87% active in at least one column).
